# TRPML1 agonist: agonists of human TRPML1 channel; Q9GZU1; TRPML1-expressing cells, Ca2+ dye fluorescence, FDSS; host cell line not named in the record; reference of the full effect not given here; activation, % (no concentration beside the values); actives 0.12% (n = 410,000); AID 624414; in the data active = activation above about 50%; inconclusive = about 30% to 50%; inactive = below about 30%; note: 0% is about no effect; the text of the record puts the active cut at 80%
# Target sequence (Q9GZU1 whole entry, looked up): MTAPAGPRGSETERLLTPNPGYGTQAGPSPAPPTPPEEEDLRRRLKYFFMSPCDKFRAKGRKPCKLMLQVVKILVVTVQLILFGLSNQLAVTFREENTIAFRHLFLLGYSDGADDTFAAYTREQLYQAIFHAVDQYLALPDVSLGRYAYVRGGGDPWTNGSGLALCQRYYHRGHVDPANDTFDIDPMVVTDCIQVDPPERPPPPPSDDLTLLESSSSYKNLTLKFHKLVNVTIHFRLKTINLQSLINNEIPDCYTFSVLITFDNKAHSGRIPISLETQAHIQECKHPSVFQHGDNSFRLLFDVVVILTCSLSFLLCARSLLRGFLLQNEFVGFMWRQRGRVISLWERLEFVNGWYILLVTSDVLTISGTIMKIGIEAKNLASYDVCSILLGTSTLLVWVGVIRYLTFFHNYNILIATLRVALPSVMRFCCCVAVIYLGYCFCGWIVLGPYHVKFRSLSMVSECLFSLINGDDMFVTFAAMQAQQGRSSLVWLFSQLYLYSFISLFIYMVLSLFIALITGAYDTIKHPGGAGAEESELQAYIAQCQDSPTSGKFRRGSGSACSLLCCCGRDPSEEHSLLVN
#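 Cells: TRPML1-DL, 1X Tet inducer, ~16 h at 37 degrees C/5% CO2. Dye: ABD Ca8 no-wash + quencher, 45-90 min RT. Read: 10 s baseline, compound add, 110 s agonist phase; 54-4 EC80 (4uM final), 110 s antagonist phase.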
# gsp antag: antagonizes gsp, the McCune-Albright syndrome mutation | gsp-mutant cells, cAMP HTRF, 30 min; control for the full effect not named in the record | AID 624288 | Potency, µM (top dose mostly 76.9 µM), without a hit: top-dose activity change, negative = inhibition, most hits filed as inhibitors | actives 0.4% (n = 340,000); active = falling curve of any shape with a large fitted effect; inconclusive = falling curve, mostly with a smaller effect; inactive = flat or rising curve; cell line not stated here;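 note: intracellular cAMP measured with PDE inhibitor Ro 20-1724 present during compound exposure; potency is the fitted concentration of half-maximal effect; % is set by controls: 0 for no effect and ±100 for the full control effect; nearly all actives have a fitted effect of over 65% in size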
#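 HTRF cAMP read-out (cAMP-d2 plus anti-cAMP antibody-K in lysis buffer, 30 min RT). Before lysis, cells are exposed to compounds with […] for 30 min at 37C in DPBS containing Ca/Mg, BSA and Tween 20.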
# gsp ag: agonists of gsp mutant (McCune-Albright syndrome); gsp mutant cells, cAMP HTRF, 30 min; control for the full effect not named in the record; AID 624287; actives 0.13% (n = 340,000); Potency, µM (top dose mostly 76.9 µM), for the others: at the highest dose activation (cAMP increase), hits mostly activators; active = well fitted activation curve with a large enough effect; inconclusive = small, poorly fitted or top-dose-only effect, or another doubt; inactive = no such curve, though single readings can be large or run the other way; cell line not stated here;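 note: phosphodiesterase inhibitor Ro 20-1724 added with compounds to block cAMP breakdown; potency is the fitted concentration of half-maximal effect; nearly all actives have a fitted effect of over 60% in size; about a fifth of the inactives were tested at one dose only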
#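 Cells stably selected in G418 were plated at 2000/well, grown 16-24 hr, then given compounds in DMSO with the PDE inhibitor […] (300 uM solution added) for 30 min at 37C; cAMP was read by HTRF.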
# Menin MLL FP FL: inhibitors of human menin-MLL interaction, wild-type MLL peptide | Fluorescence polarization, fluorescein-MLL peptide displacement from menin | FP activity change, % at 61.4 µM | 290,000 tested, under 10 active | AID 1766; inconclusive = falling polarisation curve, or a change in total fluorescence; inactive = total fluorescence flat and polarisation flat or rising; no compound was filed as active; the % refers to the polarisation; negative = inhibition;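 note: % of control where 0% means no effect; inhibitors lower the polarisation; unlabelled MLL peptide was the positive control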
# ClpP mod: qHTS Assay for Activators of ClpP. ATP-dependent Clp protease proteolytic subunit (Bacillus subtilis (strain 168)), P80244. purified B. subtilis ClpP, FRET peptide cleavage, 20 min. Potency, µM (titrated, usually from 57.5 µM), without a hit: at the highest dose activity change, negative = active. actives 1.9% (n = 340,000). AID 651965, 2013; active = well fitted falling curve with a large enough effect; inconclusive = small, poorly fitted or top-dose-only effect; inactive = no such curve, though single readings can be large or run the other way; note: potency is the fitted concentration of half-maximal effect; the source files actives as falling curves though it sought activators and does not explain the sign; nearly all actives have a fitted effect of over 65% in size; many hits overshoot -100%
# Target sequence (P80244 whole entry, looked up): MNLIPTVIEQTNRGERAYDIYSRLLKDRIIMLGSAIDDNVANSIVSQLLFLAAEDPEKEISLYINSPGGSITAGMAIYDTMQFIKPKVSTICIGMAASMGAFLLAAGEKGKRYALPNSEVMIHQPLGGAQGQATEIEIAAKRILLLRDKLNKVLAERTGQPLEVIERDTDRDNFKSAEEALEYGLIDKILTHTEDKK
#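 FRET quenching reversal measured ClpP activation: 10 microg/mL B. subtilis ClpP at pH 8 with the FRET-FV decapeptide, read at 430 nm after 320 nm excitation. The 20-min minus 0-min signal was scaled between DMSO/no-enzyme wells and ADEP (5.8 microM final).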
# TRPML1 blocker: human mucolipin-1 channel inhibition. Q9GZU1. TRPML1-inducible cells, Ca2+ dye fluorescence, FDSS; hits give low values; inhibition of EC80 agonist-evoked calcium signal. activity change, negative = inhibition, % (test concentration not listed). actives 0.02% (n = 390,000). AID 624415; in the data active means activity change below about -50%; inconclusive means about -30% to -50%; inactive means above about -30%;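 note: stimulus is agonist 54-4 at its EC80 concentration; % is set by controls: 0 for no effect and ±100 for the full control effect; compound concentration not given in the record; the text of the record puts the active cut at -80%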
#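 Tet-induced TRPML1-DL cells loaded with Ca8 no-wash calcium dye were read kinetically on FDSS. Compound addition was followed by EC80 agonist 54-4 (4 uM final); inhibition was read over 110 s.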
# An asterisk follows results filed as active; ? = inconclusive; / = not tested or not shown; [ ] = remark or other dose.
SMILES,TRPML1 agonist,gsp antag,gsp ag,Menin MLL FP FL,ClpP mod,TRPML1 blocker
O=c1c(-c2ccccc2)c(O)nc(SCCN2CCOCC2)n1-c1ccccc1,-0.1,1%,9%,7.8,0.1%,-18
Nc1nc(-c2ccccc2)c(N=Nc2ccc(Cl)cc2)s1,0.3,-17%,-4%,1.4,-1.9%,-16
COC(=O)CCCn1nc(NC(=O)c2ccco2)cc1C,0.6,5%,5%,3.5,0.1%,12
COc1ccc(-n2nc3c(c2NC(=O)c2ccc(S(=O)(=O)N4CCOCC4)cc2)CS(=O)(=O)C3)cc1,-0.2,/,-11%[15.4 µM],-0.8,/,7
Cc1nn(CC(=O)NCC(C)c2ccccc2)c(=O)c2cc3ccccc3n12 (centres undefined),-0.7,/,/,/,-19%,-9
Cc1[nH]c2ccccc2c1Cc1nnc(SCCC#N)o1,0.0,-3%,0%,-0.8,-0.6%,9
O=C(c1ccccc1)c1coc(-c2ccccc2)c1,0.9,-6%,0%,/,2.7%,-2
CCN1C[C@@H]2[C@@H]3C(=O)N(Cc4ccccc4)C(=O)[C@@H]3[C@](C)(C1=O)N2C(=O)c1ccc(Cl)c(Cl)c1,0.8,0%,/,/,0.3%,-12
CC(C)(C)C(=O)OCCn1c(=O)c2cc3c(=O)n(CCOC(=O)C(C)(C)C)c(=O)c3cc2c1=O,1.1,11%,12%,2.3,1.2%,-5
O=S(=O)(NCCc1ccccc1)c1ccc(F)cc1,/,5%,-16%,5.1,-5.6%,/
CCOc1ccc(C(=O)NC(C(=O)NCCc2ccc(S(N)(=O)=O)cc2)C(C)C)cc1 (centres undefined),-1.2,13%,-1%[15.4 µM],-5.1,0.4%,10
Cc1ccc(C)c(S(=O)(=O)N2CCCCC2CCNC(=O)C(=O)NCc2ccncc2)c1 (centres undefined),-1.0,-16%,3%,/,0.3%,-14
CN(C)/C=C(/C(=O)c1ccccc1)n1cncn1,0.2,15%,2%[15.4 µM],-0.9,/,-1
COc1ccc(CCNC(=O)C2CCN(S(=O)(=O)c3c(C)noc3/C=C/c3ccc(C)cc3)CC2)cc1OC,-0.3,/,/,/,-8.0%,-16
O=C(NC1CCCC1)C(c1ccncc1)N(CC1CCCO1)C(=O)Cn1nnc(-c2cccs2)n1 (centres undefined),0.0,1%,-10%,2.5,-2.1%,3
CC1=NN(c2ccc(Cl)c(C(=O)O)c2)C(=O)/C1=C\c1ccc(-c2ccc(C(=O)O)cc2)o1,0.2,1%,-8%[15.4 µM],2.0,/,40
FCCCOc1ccc(-c2nccc(-c3ccccn3)n2)cc1,-0.4,-7%,-47%[inhibitor],2.3,-3.2%,-10
Cn1c(/N=C/c2c(O)ccc3ccccc23)nc2ccccc21,0.6,-12%,-14%,?,-12%,-9
COc1cccc(/C=N/NC(=O)NC2CCCCC2)c1O,0.7,3%,-10%,-5.1,-17%,24
Cn1c(C(=O)NCC2CCCO2)cc2c(=O)n3ccccc3nc21 (centres undefined),3.3,5%,13µM*,0.4,?,13
Cc1ccc(NC(=O)C2CC(=O)Nc3ncnn32)c(C)c1 (centres undefined),0.4,-3%,34%,-1.8,-0.5%,29
COc1coc(C(O)CN)cc1=O (centres undefined),-0.2,10%,-8%,-1.0,/,10
CCn1c(=O)cc(SCC(=O)Nc2ccc(Cl)cc2)c2ccccc21,0.9,8%,-8%,-1.6,2.8%,28
O=c1c2ccccc2nc(SCCN2CCCCC2)n1CCc1ccccc1,-0.8,-10%,-1%[15.4 µM],-0.9,/,15
O=C(c1ccc([N+](=O)[O-])s1)N1CCN(c2cccc(Cl)c2)CC1,1.7,-29%,-34%[inhibitor],-1.9,-9.5%,17

# Further records.
SMILES,TRPML1 agonist,gsp antag,gsp ag,Menin MLL FP FL,ClpP mod,TRPML1 blocker
O=C(NCC(=O)N1CCCCCCC1)c1ccccc1Cl,0.2,10%,2%,/,0.1%,-18
O=C1Nc2ccccc2C12OCC1(CO2)COC2(OC1)C(=O)Nc1ccccc12 (centres undefined),2.4,-5%,?,0.1,-3.3%,6
CC(C)C(=O)NCCCc1ccccc1,-0.9,3%,-2%,3.5,-0.6%,-6
Cc1cccc(-n2cc(CNCCc3nc(C)cc(C)n3)c(-c3cccc(F)c3)n2)c1,0.2,11%,?,-1.3,-3.1%,-16
CC1CCCCN1C(=O)Cn1c(=O)n(-c2ccc(F)cc2)c(=O)c2sccc21 (centres undefined),/,7%,-39%[inhibitor],-1.2,-1.0%,/
CNC(=O)CCn1nc(-c2ccc(Cl)cc2)c2ccccc2c1=O,0.5,-14%,14%,1.4,-2.6%,-8
c1ccc2c(c1)Nc1nccnc1S2,-0.4,4%,-33%[inhibitor],10,1.2%,5
COc1ccc(N2CCN(C(=O)CSc3nc4cc(OC)c(OC)cc4cc3C#N)CC2)cc1,0.9,-4%,2%,-0.2,-18%,-3
NC(=O)c1ccccc1NC(=O)c1cc(S(=O)(=O)N2CCCCC2)ccc1N1CCOCC1,-0.4,13%,?,/,-18%,22
CC(c1cccnc1)N(CCN(C)C)C(=O)Nc1ccc(Cl)cc1 (centres undefined),-0.3,14%,22%,1.1,2.5%,8
C=CCOc1ccc(C2C(C(=O)c3ccco3)=C(O)C(=O)N2CCCN(CC)CC)cc1 (centres undefined),0.0,5%,23%,-1.0,-2.9%,-22
O=C(c1cc2ccccc2oc1=O)N(Cc1ccccc1)Cc1ccc2c(c1)OCO2,0.4,-14%,?,-1.2,-5.6%,-11
O=C(c1cc2c(s1)-c1ccccc1OC2)N1CCN(c2ccc(F)cc2)CC1,-0.1,/,/,/,-15%,-5
Cc1cccc(-n2nnnc2SCC(=O)Nc2cccc(S(N)(=O)=O)c2)c1,-1.0,-9%,-2%,3.5,-0.2%,6
COc1cc2nc(N(CCN(C)C)C(=O)c3ccc(S(=O)(=O)N(C)CC4CCCO4)cc3)sc2cc1OC (centres undefined),-0.3,-22%,1%,-1.4,-0.9%,2
C#CCN(C(=O)Nc1ccccc1)c1ccccc1,0.3,7%,26%,1.6,-0.9%,7
CC(=O)N(C(C)=O)c1cccc(N(Cc2ccccc2)Cc2ccccc2)c1,2.1,-21%,1%,/,/,7
Cc1[nH]n(-c2cccc3ccccc23)c(=O)c1/C=N/c1sc2c(c1C#N)CCC2,0.8,2%[15.4 µM],-14%,?,-1.0%,-23
CCCc1cc(=O)[nH]c(SCC(=O)NC(=O)OCC)n1,1.8,-5%,?,0.5,-1.3%,-3
CCOC(=O)Cn1nc(C)c(-c2ccccc2)c1N,-0.1,7%,8%,0.4,-0.1%,16
Nc1cc(Cl)ccc1C(=O)OCC(=O)NC(=O)NCc1ccccc1,1.9,-13%,14%,2.6,?,1
COc1ccc(S(=O)(=O)NCCc2sc(-c3ccccc3)nc2C)cc1F,1.8,/,/,/,4.2%,-13
CCCSc1nnc(-c2c[nH]c3ccccc23)n1CC,0.9,-17%,23%,3.3,-4.9%,-8
COc1ccc(-c2nnc(SCc3c(C)noc3C)o2)cc1,-0.1,-10%,22%[15.4 µM],0.7,/,-7
COc1ccc(C2CC(=O)C=C(NCC3CCCO3)C2)cc1 (centres undefined),-0.2,7%,15%,2.7,-0.9%,12
COc1ccc(N2CCN(C(=O)CCS(=O)(=O)c3cccc4nsnc34)CC2)cc1,-0.4,-1%,14%[15.4 µM],0.8,-3.5%,3
CCc1nn(CC(=O)NCCc2ccc(S(N)(=O)=O)cc2)c(=O)c2cc3sccc3n12,0.1,-18%,?,-6.0,/,4
O=C(CSc1nnc(-c2ccc(Br)cc2)n1-c1ccccc1)c1ccccc1,3.2,/,/,/,1.0%,-15
COc1ccc(C2(O)C(=O)Nc3ccc(C)cc32)cc1OC (centres undefined),-0.2,8%,4%[15.4 µM],2.9,17%,20
CCOc1ccc(N2C(=O)CSC2=S)cc1,/,-7%,-9%,2.5,-0.5%,/

# Part of the list above, showing only gsp ag:
molecule	gsp ag
Nc1nc(-c2ccccc2)c(N=Nc2ccc(Cl)cc2)s1	-4%
COC(=O)CCCn1nc(NC(=O)c2ccco2)cc1C	5%
COc1ccc(-n2nc3c(c2NC(=O)c2ccc(S(=O)(=O)N4CCOCC4)cc2)CS(=O)(=O)C3)cc1	-11%[15.4 µM]

# Gathered by group, the entries above containing an NH in an aromatic ring (4)
SMILES,TRPML1 agonist,gsp antag,gsp ag,Menin MLL FP FL,ClpP mod,TRPML1 blocker
Cc1[nH]c2ccccc2c1Cc1nnc(SCCC#N)o1,0.0,-3%,0%,-0.8,-0.6%,9
Cc1[nH]n(-c2cccc3ccccc23)c(=O)c1/C=N/c1sc2c(c1C#N)CCC2,0.8,2%[15.4 µM],-14%,?,-1.0%,-23
CCCc1cc(=O)[nH]c(SCC(=O)NC(=O)OCC)n1,1.8,-5%,?,0.5,-1.3%,-3
CCCSc1nnc(-c2c[nH]c3ccccc23)n1CC,0.9,-17%,23%,3.3,-4.9%,-8
